Resorufin autofl: compound fluoresces in the resorufin spectral region; Compound fluorescence, resorufin region 547/598 nm, buffer; hits give high values; max dye-equivalent concentration, M; AID 588; 59,000 tested, 0.04% active; active = above 10 nM dye equivalent; inconclusive = 1 to 10 nM; inactive = 1 nM or less; a few of its hits are not listed in these tables; note: highest value over a series up to 38 µM
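Compounds in 100 mM Tris, pH 8.0, incubated 15 min at room temperature, then fluorescence read at 547 nm excitation/598 nm emission. Signal converted to dye-equivalent concentration via an on-plate six-point resorufin standard curve, per compound concentration.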
TSHR agonist: activates the human thyroid stimulating hormone receptor. Potency, µM (series often up to 57.1 µM), without a hit: top-dose activation, usual class: activators. 73,000 tested, 0.48% active. P16473. HEK293-CNG-TSHR cells (CNG channel as cAMP sensor), membrane potential dye, cAMP; active = well fitted activation curve of enough size with the parental cells flat; inconclusive = any curve in the parental cells; inactive = parental cells flat and receptor cells flat or falling; note: potency is the fitted concentration of half-maximal effect; % of control where 0% means no effect; weak receptor curves with flat parental cells got no call and are not listed
Target sequence (P16473 whole entry, looked up): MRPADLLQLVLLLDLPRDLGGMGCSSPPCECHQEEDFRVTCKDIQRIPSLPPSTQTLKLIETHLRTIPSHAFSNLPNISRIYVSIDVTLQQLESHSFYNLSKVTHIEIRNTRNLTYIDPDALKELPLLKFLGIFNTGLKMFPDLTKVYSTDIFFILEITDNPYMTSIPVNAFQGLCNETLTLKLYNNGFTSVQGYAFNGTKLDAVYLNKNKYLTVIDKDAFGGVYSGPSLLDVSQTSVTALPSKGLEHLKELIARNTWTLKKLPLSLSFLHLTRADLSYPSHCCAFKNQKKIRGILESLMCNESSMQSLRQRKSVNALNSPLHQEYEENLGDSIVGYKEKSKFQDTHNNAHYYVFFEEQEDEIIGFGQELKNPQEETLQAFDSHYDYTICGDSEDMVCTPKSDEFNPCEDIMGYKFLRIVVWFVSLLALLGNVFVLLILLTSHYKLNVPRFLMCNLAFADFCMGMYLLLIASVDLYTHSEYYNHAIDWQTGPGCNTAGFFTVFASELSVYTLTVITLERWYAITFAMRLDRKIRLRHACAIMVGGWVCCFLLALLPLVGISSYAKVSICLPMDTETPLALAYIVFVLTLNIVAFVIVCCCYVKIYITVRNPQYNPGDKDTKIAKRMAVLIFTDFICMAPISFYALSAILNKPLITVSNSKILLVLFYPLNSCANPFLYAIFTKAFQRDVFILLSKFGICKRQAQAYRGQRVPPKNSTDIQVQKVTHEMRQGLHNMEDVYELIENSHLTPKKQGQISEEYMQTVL
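HEK 293 cells stably expressing TSHR and a modified CNG channel, with CNG-only parental cells as counterscreen, were preloaded 60 min at room temperature with membrane potential dye containing 100 uM RO 20-1724. Compound exposure was 30 min, and depolarization was read as fluorescence at 590 nm.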
A647 autofl: A647 region autofluorescence; Compound fluorescence, A647 channel (570/671 nm), Tris buffer; max dye-equivalent concentration, M; 59,000 tested, under 10 active; AID 592; active means above 1 µM dye equivalent; inconclusive means 0.1 to 1 µM; inactive means 0.1 µM or less;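 note: values scaled relative to a standard on each plate; highest value over a series up to 38 µM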
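Compounds pinned into 100 mM Tris pH 8.0, 15 min at room temperature, then read with 570 nm excitation/671 nm emission filters. Fluorescence normalized to an on-plate six-point Alexa 647 standard curve, giving dye-equivalent concentration per compound concentration.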
A488 autofl: compound fluoresces in the A488 spectral region | compound autofluorescence, A488 spectral region, dye equivalency; hits give high values | max dye equivalency, M | 59,000 tested, 0.1% active | AID 591; active = above 10 nM dye equivalent; inconclusive = 1 to 10 nM; inactive = 1 nM or less; about half of its hits are not listed in these tables;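 note: highest value over a series up to 38 µM; compound alone in buffer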
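Read-out: relative fluorescence at 480/540 nm, expressed as Alexa 488 dye-equivalent concentration from a six-point A488 standard included per plate. Conditions: 100 mM Tris, pH 8.0; 15 min incubation, room temperature.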
AID923: qHTS Assay for Allosteric/Competitive Inhibitors of Caspase-1: Spectroscopic Profiling in AFC Spectral Region; compound fluorescence, AFC spectral region (405/520 nm); almost no hit is shown here; 75,000 tested, 1.1% active; Potency, µM (top dose mostly 57.5 µM), inactives show at the top dose fluorescence increase, most hits filed as activators; active = well fitted activation curve with a large enough effect; inconclusive = small, poorly fitted or top-dose-only effect;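 note: potency is the fitted concentration of half-maximal effect; 0% is about no effect; scaled to a free AFC standard on each plate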
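Baseline compound fluorescence (AFC region, 405 nm ex/520 nm em) taken from the intercept of kinetic reads with 50 nM caspase-1 and 5 uM Ac-WEHD-AFC; normalized to an on-plate AFC standard curve; compounds titrated up to 57 uM.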
An asterisk follows results filed as active; i = inactive; ? = inconclusive; / = no result given; [ ] = remark or other dose. An excerpt; count on the stated rates, not on these rows.

SMILES	Resorufin autofl	TSHR agonist	A647 autofl	A488 autofl	AID923
CCNc1nc(N)nc(Oc2ccc(OCC)nn2)n1	i	1%	4.1e-09	i	-1.1%
CCn1c(SCC(=O)NC(C)(C)C)nc(O)cc1=O	i	2%	1.2e-08	i	6.6%
O=C(CN1C(=O)c2ccccc2S1(=O)=O)N1CCN(Cc2ccc3c(c2)OCO3)CC1	i	-2%[11.4 µM]	1.6e-08	i	-1.1%
CCCCC(CC)CNC(=O)CN(C)S(=O)(=O)c1cccc2nsnc12 (stereo not given)	i	10%	6.9e-09	i	0.3%
COc1ccc(N2CCN(C(CNC(=O)c3cccc(Cl)c3)c3cccnc3)CC2)cc1 (stereo not given)	i	12%	3.6e-08	i	-0.5%
COc1ccc(OC)c(NC(=O)[C@H]2CC=CC[C@H]2C(=O)O)c1	i	9%[11.4 µM]	2.3e-09	i	0.3%
c1ccc2c(c1)CCCN2Cc1nnnn1C1CCCC1	i	6%	2.5e-08	i	18%
N#CC(C#N)C(c1ccsc1)c1c(-c2ccccc2)[nH][nH]c1=O (stereo not given)	i	/	1e-09	i	/
CCOC(OCC)P(=O)(O)CCCNCc1ccc(Cl)c(Cl)c1	/	-7%	/	/	6.9%
CCCOc1ccccc1C1NC(=O)NC(C)=C1C(=O)OCCOC (stereo not given)	i	3%	3e-08	i	-0.2%
COC(=O)N[C@H](c1ccccc1)[C@@]1(C)C[C@@H]1[C@@H](C)C(=O)Nc1ccc2ccccc2c1	/	7%	/	/	-1.1%
CCOC(=O)N1CCC(NC(=O)c2ccc3snnc3c2)CC1	/	-7%	/	/	-0.6%
CCCCOC(=O)Nc1sc2c(c1C(=O)OC)CCC2	/	?	/	/	2.7%
O=C(COC(=O)C1=COCCO1)Nc1ccc2c(c1)OCO2	i	-3%	1e-09	i	1.0%
CC(=O)Nc1cc(NC(C)=O)c(CC(C)C)s1	/	?	/	/	-2.3%
C=C(C)C(=O)OCC(C)O (stereo not given)	/	-4%	/	/	2.9%
O=C(O)CCn1cnc2c(=S)nc[nH]c21	i	2%[11.4 µM]	1e-09	i	4.4%[11.5 µM]
c1ccc(-n2ncc3c(NCC4CCCO4)ncnc32)cc1 (stereo not given)	i	/	1e-09	i	/
CCOC(=O)Nc1sc(C)nc1-c1ccccc1	i	6%	1.7e-08	i	-1.5%
CCN(Cc1ccccc1)S(=O)(=O)c1ccc(S(=O)(=O)N2CCN(CCC#N)CC2)cc1	/	-18%	/	/	1.9%
O=C(OC1CSc2nc3ccccc3n2C1)c1ccco1 (stereo not given)	i	16%	1e-09	i	0.3%
Cc1ccc(-c2n[nH]c(=O)c3ccccc23)cc1S(=O)(=O)NCCN1CCOCC1	i	/	4.6e-08	i	/
COc1ccccc1NC(=O)Nc1ccc2c(c1)OCCO2	i	-9%	1.3e-08	i	-0.4%
COc1ccc(N2CCN(C(=O)c3ccc(C)c(Cl)c3)CC2)cc1	i	-13%	1e-09	i	-1.4%
Cc1cc(C(=O)O)c(CCCN)s1	i	?	1.4e-08	i	-2.0%
CC1Oc2ccccc2N(CC(=O)c2ccccc2)C1=O (stereo not given)	i	20%	3.8e-09	i	0.0%
CCOc1ccccc1-n1c(SCC(=O)NCc2ccco2)nnc1-c1ccncc1	i	1%	3e-08	i	-0.7%
COc1ccc(S(=O)(=O)N(C)CC(=O)N2CCOCC2)cc1Cl	i	2%	1.9e-08	i	-2.2%
Cc1cc(C)n2nc(SCc3nc4ccccc4[nH]3)nc2n1	/	1%	/	/	1.9%
COc1ccc(OC)c2c(C)cc(N3CCCN(C)CC3)nc12	/	-30%[inhibitor]	/	/	3.2%
CC1Cc2ccccc2N1C(=O)CSCC(=O)O (stereo not given)	i	-2%	1e-08	i	-0.7%
COc1ccc(-n2c(Cc3cccn3C)nnc2SCC(=O)N2CCOCC2)cc1	/	?	/	/	-1.4%
CC(=O)N1CCN(c2ccc(NCc3ccc(F)cc3)cc2)CC1	/	0%	/	/	-0.2%
O=C(OCc1cc2ccccc2[nH]c1=O)c1ccccn1	i	?	3.7e-09	i	-1.0%
CC(C(=O)NC1CCCc2ccccc21)N1CCN(Cc2ccc3c(c2)OCO3)CC1 (stereo not given)	i	?	2e-09	i	-0.5%
CC1(NC(=O)N2CCCCC2)CCS(=O)(=O)C1 (stereo not given)	/	-2%	/	/	0.8%
O=C(O)CCCC(=O)NCCc1ccncc1	i	4%	1.5e-09	i	0.1%
COc1ccc(-n2cnc3c(sc4nccc(N(C)C)c43)c2=O)cc1	i	3%	1e-09	i	-5.0%
CCn1c2ccccc2c2cc(NC(=O)Cc3ccc(S(=O)(=O)N4CCOCC4)s3)ccc21	i	-11%	3.4e-08	i	-0.9%
O=C(O)CCc1cc(I)c(Oc2ccc(O)c(I)c2)c(I)c1	i	/	1e-09	i	/

The final 3 records of the section before open the next one.
SMILES	Resorufin autofl	TSHR agonist	A647 autofl	A488 autofl	AID923
COc1ccc(-n2cnc3c(sc4nccc(N(C)C)c43)c2=O)cc1	i	3%	1e-09	i	-5.0%
CCn1c2ccccc2c2cc(NC(=O)Cc3ccc(S(=O)(=O)N4CCOCC4)s3)ccc21	i	-11%	3.4e-08	i	-0.9%
O=C(O)CCc1cc(I)c(Oc2ccc(O)c(I)c2)c(I)c1	i	/	1e-09	i	/
CC1CCCCC1NC(=O)c1nnc(Cc2ccc(Cl)cc2)o1 (stereo not given)	/	3%	/	/	-1.4%
O=C(O)c1cc2n(n1)C(C(F)(F)F)CC(c1ccccc1)N2 (stereo not given)	i	/	2.9e-08	i	/
O=C(CCN1C(=O)c2ccccc2C1=O)Nn1cnnc1	i	-2%	1e-09	i	0.1%
O=C(OCC(COC(=O)c1ccccc1)(COC(=O)c1ccccc1)COC(=O)c1ccccc1)c1ccccc1	/	1%	/	/	-2.9%
COc1cc(OC)c(C(=O)NC2CC(C)(C)NC(C)(C)C2)cc1OC	i	1%	1e-09	i	-1.5%
CC1CCCC(C)N1C(=O)CSc1nnc(NC(=O)Cc2cccs2)s1 (stereo not given)	i	0%	5.2e-08	i	3.3%
Cn1c(=O)cc(SCC(=O)NCC2CCCO2)c2ccccc21 (stereo not given)	i	2%	1e-09	i	1.9%
Cc1oc2c(CN3CCCC3)c(O)ccc2c(=O)c1-c1ccc(Br)cc1	i	0%	1.3e-08	i	1.6%
Cc1csc2ncc(C(=O)N3CCc4ccccc43)c(=O)n12	/	-9%	/	/	0.8%
O=C(c1ccc(Br)o1)N1CCN(c2ccc(F)cc2)CC1	i	7%	2.4e-09	i	0.2%
CN(C)CCCN1C(=O)C(=O)/C(=C(/O)c2ccc(S(=O)(=O)N(C)C)cc2)C1c1ccncc1 (stereo not given)	/	21%	/	/	-1.4%
O=C(Nc1nc(=O)c2ccccc2s1)c1ccccc1	i	/	3.5e-08	i	/
CC(=O)N1CN(C2CCS(=O)(=O)C2)Cc2c1sc1c2CCCC1 (stereo not given)	i	-1%	3e-08	i	-1.9%
O=C(c1ccc2nccnc2c1)N1CCN(Cc2ccc3c(c2)OCO3)CC1	i	-8%	2.3e-08	i	-0.7%
c1csc(CNc2ncnc3nc[nH]c23)c1	/	-2%	/	/	1.9%
COC(=O)c1cc2oc3ccccc3c2n1CC(=O)Nc1ccccc1OC	i	8%	2.5e-08	i	-0.3%
CNC(=O)CSc1nnc(-c2cccc(S(=O)(=O)N3CCOCC3)c2)n1-c1ccc(F)cc1	i	-1%	1.8e-09	i	-2.3%
Cc1cc(NC(=O)c2cnn3c(C(F)(F)F)cc(-c4ccccc4)nc23)no1	i	-52%[inhibitor]	4.7e-08	i	0.6%
COc1ccc(S(=O)(=O)CCC(=O)NCCc2ccc(S(N)(=O)=O)cc2)cc1	i	3%	2.7e-08	i	3.3%
O=Cc1ccc(Cl)c(Cl)c1	/	-6%	/	/	-2.1%
O=S(=O)(c1ccccc1)N1CCC2(CCCN(C(c3ccccc3)c3ccccc3)C2)CC1	i	5%	2.1e-08	i	1.2%
Cc1cccc(C)c1Nc1nnc(SCC(=O)NCc2ccco2)s1	i	4%	3.7e-08	i	-0.8%
O=C(COc1ccc(Cl)cc1)NCc1nnc(SCC(=O)Nc2ccc3c(c2)OCCO3)o1	i	6%[11.4 µM]	1e-09	i	2.0%
O=C(O)c1ccc2c(c1)C(=O)N(CCC1=CCCCC1)C2=O	i	-2%[11.4 µM]	1e-09	i	0.6%
Cc1cccc2cc(CN(CCN3CCOCC3)C(=O)NCc3ccccc3)c(=O)[nH]c12	i	0%	1e-09	i	0.5%
Cn1c2c(c(=O)n(C)c1=O)C(c1cc3c(cc1Br)OCO3)CC(=O)N2 (stereo not given)	/	2%	/	/	-2.0%
Cc1cc(O)c(C(C)C)cc1NC(=O)Cn1nc(C)c2ccccc2c1=O	i	1%[11.4 µM]	2.4e-08	i	-0.6%
COc1ccc(CNc2ncncc2-c2c(C)noc2C)c(OC)c1	i	15%	1e-08	i	2.8%
Cc1occc1-c1nnc(SCC(=O)NC(C)(C)C)n1C(C)c1ccccc1 (stereo not given)	i	?	1e-09	i	-0.6%
CCOc1ccccc1C(=O)N(C)Cc1cc2cc(OC)ccc2[nH]c1=O	i	18%	2.2e-08	i	1.6%
COc1ccccc1OCC(=O)c1[nH]c(C)c(C(C)=O)c1C	i	14%	2.6e-08	i	0.6%
COc1ccc2[nH]c(C)c(CCN3C(=O)C4CC=CCC4C3=O)c2c1 (stereo not given)	/	-7%[11.4 µM]	/	/	-0.6%
O=C(CCN1C(=O)c2ccccc2C1=O)N1CCN(Cc2ccccc2)CC1	/	0%	/	/	-0.8%
O=C(Nc1ccccc1)N1CCC2(CC1)CCN(C(=O)c1ccco1)CC2	i	0%	1.2e-08	i	0.0%
O=C1CC(N2CCN(Cc3ccccc3)CC2)C(=O)N1CCc1ccccc1 (stereo not given)	/	7%	/	/	-0.9%
CC1(C)Cc2c(sc3nc(SCC#N)n(C4CCCCC4)c(=O)c23)CO1	i	/	5.2e-09	i	/
COC(=O)[C@@]1(Cc2ccc(F)cc2)[C@H]2c3cc(C(=O)N4CCCC4)n(Cc4cccc5ccccc45)c3C[C@H]2CN1C(=O)c1ccccc1	/	?	/	/	-1.3%
CCCc1nc(SCC(=O)N2CCCc3ccccc32)c2c(=O)n(C)c(=O)n(C)c2n1	/	26%	/	/	-1.1%
CNS(=O)(=O)c1ccc(Oc2ccc(S(=O)(=O)NC)cc2)cc1	/	-5%	/	/	2.1%
Cn1c(SCc2c(Cl)cccc2Cl)nnc1-c1cccs1	i	?	2.9e-08	i	3.2%

Reprinted at random: five compounds from above.
SMILES	Resorufin autofl	TSHR agonist	A647 autofl	A488 autofl	AID923
CC1CCCCC1NC(=O)c1nnc(Cc2ccc(Cl)cc2)o1 (stereo not given)	/	3%	/	/	-1.4%
COc1ccccc1OCC(=O)c1[nH]c(C)c(C(C)=O)c1C	i	14%	2.6e-08	i	0.6%
O=S(=O)(c1ccccc1)N1CCC2(CCCN(C(c3ccccc3)c3ccccc3)C2)CC1	i	5%	2.1e-08	i	1.2%
COc1ccccc1NC(=O)Nc1ccc2c(c1)OCCO2	i	-9%	1.3e-08	i	-0.4%
Cc1oc2c(CN3CCCC3)c(O)ccc2c(=O)c1-c1ccc(Br)cc1	i	0%	1.3e-08	i	1.6%

Later entries.
SMILES	Resorufin autofl	TSHR agonist	A647 autofl	A488 autofl	AID923
CC(C)(C)NC(=O)Cn1nnc(-c2cccs2)n1	i	-4%	1.3e-08	i	16%
O=C(O)CCCCCCC1C(=O)NC(=O)N1CCC(O)C1CCCCC1 (stereo not given)	i	/	3.2e-09	i	/
CC(=O)Nc1ccc(S(=O)(=O)c2ccc(N)cc2)cc1	i	-1%	2.2e-09	i	-1.0%
CCC(C(=O)OC)n1cnc2c(cnn2-c2ccc(Cl)cc2)c1=O (stereo not given)	i	5%	1e-09	i	-0.6%

Screening data: PubChem BioAssay, National Center for Advancing Translational Sciences (NCATS)
